From PubChem
Sfp inh – qHTS Assay for Inhibitors of Bacillus subtilis Sfp phosphopantetheinyl transferase (PPTase). Biochemical Sfp PPTase activity, qHTS. Potency, µM, for inactives: max response, negative = inhibition, most hits filed as inhibitors. 3.5% of 310,000 active. AID 1490, 2009; active means well fitted inhibition curve with a large enough effect; inconclusive means small, poorly fitted or top-dose-only effect, or another doubt; inactive means no such curve, though single readings can be large or run the other way;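 further: the enzyme is Sfp with the accession as filed and its product quenches rhodamine fluorescence; potency means the concentration at half of the fitted maximal effect; 0% = enzyme reaction without inhibitor and -100% = no enzyme wells; top concentration of the series not given in the record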
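Compounds were incubated with enzyme (final 15 nM) for 15 min at room temperature before substrate addition started the reaction. Fluorescence at 525 nm excitation, 598 nm emission was recorded immediately and after 30 minutes.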
ClpP mod – qHTS Assay for Activators of ClpP; purified B. subtilis ClpP, FRET peptide cleavage, 20 min; Potency, µM (titrated, usually from 57.5 µM), for inactives: at the top dose activity change, negative = active; 1.9% of 340,000 active; active = well fitted falling curve with a large enough effect; inconclusive = small, poorly fitted or top-dose-only effect; inactive = no such curve, though single readings can be large or run the other way; further: potency means the concentration at half of the fitted maximal effect; the source files actives as falling curves though it sought activators and does not explain the sign; nearly all actives have a fitted effect of over 65% in size; many hits overshoot -100%
Target sequence (P80244 whole entry, looked up): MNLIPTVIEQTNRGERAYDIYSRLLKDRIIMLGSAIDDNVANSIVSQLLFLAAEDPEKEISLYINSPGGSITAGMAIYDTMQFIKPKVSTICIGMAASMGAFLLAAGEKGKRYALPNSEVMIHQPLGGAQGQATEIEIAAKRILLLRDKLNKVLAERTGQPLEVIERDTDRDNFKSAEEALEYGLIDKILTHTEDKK
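ClpP 10 microg/mL final, pH 8 Tris/KCl buffer with BSA, glycerol, Tween-20; compound pinned in; FRET-FV substrate; RT 20 min; Ex320/Em430; ΔFRET vs ADEP 5.8 microM, DMSO, no enzyme.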
gsp antag – qHTS for Antagonists of gsp, the Etiologic Mutation Responsible for Fibrous Dysplasia/McCune-Albright Syndrome: qHTS; gsp-mutant cells, cAMP HTRF, 30 min; control for the full effect not named in the record; 0.4% of 340,000 active; Potency, µM (series often up to 76.9 µM), inactives show at the top dose activity change, negative = inhibition, actives largely listed as inhibitors; AID 624288, 2012; active = falling curve of any shape with a large fitted effect; inconclusive = falling curve, mostly with a smaller effect; inactive = flat or rising curve; cell line not stated here;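 further: intracellular cAMP measured with PDE inhibitor Ro 20-1724 present during compound exposure; potency means the concentration at half of the fitted maximal effect; on the % scale 0 is the no-effect control and ±100 the full control effect; nearly all actives have a fitted effect of over 65% in size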
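HTRF cAMP read-out (cAMP-d2 plus anti-cAMP antibody-K in lysis buffer, 30 min RT). Before lysis, cells are exposed to compounds with […] for 30 min at 37C in DPBS containing Ca/Mg, BSA and Tween 20.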
Menin MLL FP FL – qHTS Assay for Inhibitors Targeting the Menin-MLL Interaction in MLL Related Leukemias: Competition With Fluorescein Labeled MLL-derived Peptide; Fluorescence polarization, fluorescein-MLL peptide displacement from menin; AID 1766, 2009; FP activity change, % at 61.4 µM; 290,000 tested, under 10 active; inconclusive = falling polarisation curve, or a change in total fluorescence; inactive = total fluorescence flat and polarisation flat or rising; no compound was filed as active; the % refers to the polarisation; negative = inhibition;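 further: % of control where 0% means no effect; inhibitors lower the polarisation; unlabelled MLL peptide was the positive control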
TRPV1 PAM – HTS Assay for Compounds that Act as Potentiators of the Vanilloid Receptor 1; TRPV1-expressing cells, Fluo-8 calcium influx, capsaicin EC20 potentiation; host cell line not named in the record; control for the full effect not named in the record; 0.02% of 320,000 active; potentiation, % at 8.33 µM; active means potentiation above 80%; inconclusive means 30% to 80%; inactive means below 30%; further: 0% is about no effect
Target sequence (Q8NER1 whole entry, looked up): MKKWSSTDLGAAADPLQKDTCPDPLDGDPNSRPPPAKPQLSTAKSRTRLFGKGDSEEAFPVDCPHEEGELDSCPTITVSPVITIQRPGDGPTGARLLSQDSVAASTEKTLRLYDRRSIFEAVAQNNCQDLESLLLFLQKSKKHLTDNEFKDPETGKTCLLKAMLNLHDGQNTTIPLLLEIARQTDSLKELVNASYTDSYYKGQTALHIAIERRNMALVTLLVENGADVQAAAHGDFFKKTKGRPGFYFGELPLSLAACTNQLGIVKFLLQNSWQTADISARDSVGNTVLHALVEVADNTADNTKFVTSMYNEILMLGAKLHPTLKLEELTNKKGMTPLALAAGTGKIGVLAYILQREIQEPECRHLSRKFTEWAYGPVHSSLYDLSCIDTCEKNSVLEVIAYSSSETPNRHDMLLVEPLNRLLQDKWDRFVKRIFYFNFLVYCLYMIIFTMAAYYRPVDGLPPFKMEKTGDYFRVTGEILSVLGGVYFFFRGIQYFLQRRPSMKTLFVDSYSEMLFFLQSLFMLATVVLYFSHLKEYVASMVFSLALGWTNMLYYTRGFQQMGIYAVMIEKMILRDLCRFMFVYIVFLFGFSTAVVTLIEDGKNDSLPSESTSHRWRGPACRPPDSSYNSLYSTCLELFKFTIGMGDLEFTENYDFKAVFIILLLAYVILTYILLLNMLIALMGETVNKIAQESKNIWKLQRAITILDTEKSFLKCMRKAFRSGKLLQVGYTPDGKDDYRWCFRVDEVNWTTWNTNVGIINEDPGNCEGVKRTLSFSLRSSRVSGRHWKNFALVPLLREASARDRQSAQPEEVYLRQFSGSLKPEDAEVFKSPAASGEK
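Fluo-8 calcium influx in TRPV1-expressing cells, kinetic read (ex 480/em 520 nm). Compound added and read 3 min for agonist activity, followed by capsaicin at EC20 final and 2 min further read for enhancement.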
gsp ag – qHTS for Agonist of gsp, the Etiologic Mutation Responsible for Fibrous Dysplasia/McCune-Albright Syndrome: qHTS; gsp mutant cells, cAMP HTRF, 30 min; control for the full effect not named in the record; Potency, µM (top dose mostly 76.9 µM), inactives show top-dose activation (cAMP increase), hits mostly activators; 0.13% of 340,000 active; active = well fitted activation curve with a large enough effect; inconclusive = small, poorly fitted or top-dose-only effect, or another doubt; inactive = no such curve, though single readings can be large or run the other way; cell line not stated here;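 further: phosphodiesterase inhibitor Ro 20-1724 added with compounds to block cAMP breakdown; potency means the concentration at half of the fitted maximal effect; nearly all actives have a fitted effect of over 60% in size; about a fifth of the inactives were tested at one dose only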
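Cells in DMEM/10% FBS with G418 were pretreated with compounds in DMSO plus […] (300 uM stock) for 30 min at 37C. cAMP was measured by HTRF (cAMP-d2 plus anti-cAMP antibody-K) after 30 min at room temperature.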
D2 potentiator – Beta-Arrestin HTS for Positive Allosteric Modulators of the Human D2 Dopamine Receptor: Potentiators; 0.23% of 360,000 active; DiscoveRx D2 beta-arrestin cells, luminescence, 90 min; 100% = 57 uM dopamine signal; potentiation, % (test concentration not listed); D(2) dopamine receptor (Homo sapiens), P14416; AID 624464, 2012; active = potentiation of 50% or more; inconclusive = 30% to 50%; inactive = 30% or less;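 further: compound concentration not given in the record; tested on top of an EC20 dose of dopamine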
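PathHunter beta-arrestin assay in DiscoveRx D2 cells. Compounds were added with an EC20 of dopamine (50 nM final) for 90 min at 37 deg C. Luminescence was read 1 h after detection reagent, with 57 uM dopamine as the EC100 control.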
Numbers without * were called inactive; u = inconclusive; x = no result given; & = joins results of further samples; [ ] = remark or other dose.

SMILES	Sfp inh	ClpP mod	gsp antag	Menin MLL FP FL	TRPV1 PAM	gsp ag	D2 potentiator
CCCCNC(=S)NNC(=O)c1nn(C)c(C)c1Cl	21%	0.7%	-7%	1.5	7	-3%	1
COc1cccc(/C=C2\SC(=S)N(CCCC(=O)N3CCOCC3)C2=O)c1	x	1.2%	x	x	x	-22%	-6
CC1CCCCN1C(=O)Nc1cccc(C(F)(F)F)c1 (stereo not given)	17%	x	4%	-0.2	1	7%[15.4 µM]	-9
Cc1ccc(N2C(=O)CN(Cc3cccs3)C2=S)cc1C	13%	0.3%	-7%	0.4	-12	-4%[15.4 µM]	-5
O=C(COC(=O)c1ccccc1O)Nc1cc(S(=O)(=O)N2CCCCCC2)ccc1Cl	x	4.1%	2%	x	-10	22%	-2
C=CCNC(=O)c1onc(CSc2ccccc2C)c1C(=O)O	u	1.0%	-7%	3.2	10	u	-5
Cc1ccc(C(=O)Nc2nc(C)c(C(=O)N(C)C)s2)o1	2%	-1.7%	-3%	-2.8	12	-22%	-4
COc1ccccc1NC(=O)Cn1cnc2c(oc3ccccc32)c1=O	-6%	0.4%	2%	7.6	15	u	-4
CN1CCN(C2CCCCC2NS(=O)(=O)c2ccc(Cl)cc2)CC1 (stereo not given)	-8%	-1.2%	16%	1.7	12	-57%[inhibitor]	-18
O=C(NCCN1CCN(c2ccccc2)CC1)c1ccccc1F	4%	x	2%	-2.2	-3	-16%	-17
CC(C)CC(=O)NC1(C(F)(F)F)C(=O)N(CC(C)C)C2=C1C(=O)CC(C)(C)C2 (stereo not given)	13%	-2.1%	13%	1.2	2	u	-25
Cc1ccc2c(c1)nnn2C1CCN(CC(=O)c2ccc(Cl)cc2)CC1	6%	0.2%	4%	1.5	11	2%	-20
CC(=O)Nc1ccc(NC(=O)C2C3C=CC(C3)C2C(=O)O)cc1 (stereo not given)	u	-0.8%	6%	1.1	11	11%[15.4 µM]	-2
COc1ccc2[nH]c(C)c(CCN(Cc3cccs3)C(=S)Nc3ccc(F)cc3)c2c1	16%	-8.2%	-16%	u	5	1%	-7
c1ccc(Oc2nc(Oc3ccccc3)nc(N3CCOCC3)n2)cc1	8%	-13%	-9%	0.6	4	-25%	-8
COc1ccc(OCc2cc(C(=O)N3CCN(CC(=O)N(C)C)CC3)no2)c(Cl)c1	-6%	-2.8%	0%	-1.0	u	u	-9
Cc1ccc(-c2n[nH]c3c2C(c2cccc(O)c2)N(c2ccc(C(=O)O)cc2)C3=O)cc1 (stereo not given)	6%	-0.8%&1.0%	7%	-1.0	1	13%	-7
COc1ccc(Cc2nc3ccc(C(=O)N(C)CCCN4CCOCC4)cc3o2)cc1	12%	-1.0%	6%	x	3	-3%	-4
O=C(Nc1nccs1)C1CCCN1S(=O)(=O)c1cccc2cccnc12 (stereo not given)	19%	-1.3%	-3%	-1.2	15	-46%[inhibitor]	1
Cc1cccn2c(=O)c(/C=N/O)c(NCc3ccccc3)nc12	16%	-3.1%	13%	7.0	2	-14%[15.4 µM]	-17
COC(=O)CC1COc2ccccc2N1S(=O)(=O)c1ccc(OC)cc1 (stereo not given)	-14%	0.8%	29%	2.3	-2	-2%[15.4 µM]	-9
COc1ccc(S(=O)(=O)N(C(=O)c2ccncc2)c2ccc(OC(=O)c3ccncc3)cc2)cc1	5%	x	4%	0.1	1	u	-11
O=C(C=Cc1ccccc1)N1CCCCC1	x	x	3%	x	x	-14%	7
COc1cc(/C=C2\N=C(c3ccccc3)NNC2=O)cc(OC)c1OC	14%	x	0%	-0.4	6	-26%	-15
CCn1cc(C(=O)NCc2cccnc2)c(=O)c2cc(F)c(N3CCN(C(=O)c4ccco4)CC3)cc21	19%	u	u	-1.3	-5	1%	-1
Cc1c(OC(C)C(=O)NCC2CCC(C(=O)O)CC2)ccc2c(-c3ccccc3)cc(=O)oc12 (stereo not given)	-5%	-26%	-14%	-5.8	-8	x	-23
Cc1ccc(C2(c3ccc(C)cc3)NC(=O)N(Cc3c(C)noc3C)C2=O)cc1	10%	0.5%	-2%	-0.4	-15	u	8
Cc1cc(N2C(=O)C3CC=CCC3C2=O)cc(C)c1Br (stereo not given)	-7%	-1.1%	5%	-0.8	-8	1%	11
COC(=O)c1sccc1NC(=O)CCC1CCCC1	-6%	-1.1%	u	0.6	-3	-2%	-6
CS(=O)(=O)N(CC(=O)NCc1ccco1)c1cc(C(F)(F)F)ccc1Cl	4%	1.3%	-2%	-2.6	9	-32%[inhibitor]	-1
O=C(CN(Cc1ccccc1)S(=O)(=O)c1ccccc1)N1CCOCC1	11%	0.5%	4%	2.6	-13	u	-26
Cc1csc(NC(=O)NCC2CCCC(CNC(=O)Nc3nc(C)cs3)C2)n1 (stereo not given)	-9%	x	-9%	6.1	3	19%	-5
Cc1ccc(CNC(=O)Cn2cnc3c(NCc4ccccc4)ncnc32)o1	x	1.3%	9%	x	x	x	-5
Cc1ccsc1C(=O)NNC(=O)c1cccc(S(=O)(=O)N2CCCC2)c1	x	0.8%	8%	x	-3	-6%	3
O=C(CCN1C(=O)c2ccccc2C1=O)C1=NN[C@@H]2C(=O)N(c3ccc(F)cc3)C(=O)[C@H]12	3%	-0.8%	-2%	2.5	4	3%	3
NC(=O)Cn1cc(C(=O)c2cccs2)c2ccccc21	2%	20µM*	-7%	3.1	u	31%	-8
NC(=O)Cn1c(=O)n(CCC(=O)NCCSCc2ccccc2)c(=O)c2ccccc21	11%	-8.4%	5%	0.5	15	17%	-8
COc1cc(/C(C)=N\NC(=O)CSc2nc3ccccc3n2C)ccc1O	6%	-0.6%	-1%	3.8	29	-26%	5
Cc1cc(C)cc(C(=O)NC2CC(C)(C)NC(C)(C)C2)c1	-2%	0.5%	-4%	0.7	-2	2%[15.4 µM]	-10
O=C(O)C1CCCCN1C(=O)c1ccc(S(=O)(=O)N2CCCCCC2)cc1 (stereo not given)	x	2.3%	3%	x	-24	14%	-4
CCC(C)[C@H](NC(=O)NCc1cccs1)C(=O)OC (stereo not given in full)	6%	-0.1%	13%	0.2	3	-14%	-6
Cc1ccc(N2CC(C(=O)NC(C)CCc3ccccc3)CC2=O)cc1 (stereo not given)	1%	3.2%	4%	-3.5	0	u	-9
CCOC(=O)C1CCN(C(=O)COc2ccc(Br)cc2C)CC1	21%	0.3%	0%	2.3	-8	-33%[inhibitor]	1
COc1ccc(CNC(=O)Cn2cnc3c(NCc4ccccc4)ncnc32)cc1	x	-1.4%	12%	x	x	x	1
O=C(NCC(c1ccco1)N1CCCC1)c1ccc(S(=O)(=O)Nc2ccccc2Cl)cc1 (stereo not given)	x	-3.1%	7%	x	-7	3%	-1
O=C(O)COc1ccc(F)cc1Br	8%	2.4%	-2%	2.0	-1	u	-9
Cc1c(NC(=O)COC(=O)c2ccc(O)cc2)c(=O)n(-c2ccccc2)n1C	x	-1.7%	6%	x	3	-76%[inhibitor]	-11
N=C(N)c1ccc(N)cc1	x	0.4%	0%	4.0	7	x	6
O=[N+]([O-])c1ccc(N=Nc2ccc(O)cc2O)cc1	-10%	-0.7%	u	11	16	-3%[15.4 µM]	-15
CC(=O)N/N=C/c1ccccc1OCCOc1cccc(C)c1	7%	-2.0%	-5%	1.2	-3	-20%	-17
Going on with the list.
SMILES	Sfp inh	ClpP mod	gsp antag	Menin MLL FP FL	TRPV1 PAM	gsp ag	D2 potentiator
CCC(=O)NNc1ncnc2c1cnn2C	1%	x	4%	-3.6	0	13%[15.4 µM]	-8
O=S(=O)(c1ccc(NC(=S)NN=C(Cc2ccccc2)Cc2ccccc2)cc1)N1CCOCC1	u	x	-3%	0.1	-6	-1%[15.4 µM]	-4
C=CCN(c1ccccc1)S(=O)(=O)c1cccc(C(=O)Nc2cccc(C)n2)c1	x	-2.7%	-21%	x	-16	-21%	-11
COc1ccc(Br)cc1C(=O)NC(=S)Nc1ccc2[nH]c(=O)[nH]c2c1	0%	x	1%	0.5	2	0%	-2
C/C(=N/Nc1ncc(C(F)(F)F)cc1Cl)c1ccncc1	56µM*	x	13%	-2.9	-4	3%	-8
CN(C)S(=O)(=O)c1ccc(C(=O)Nc2ccc3nc(N4CCOCC4)sc3c2)cc1	x	-2.7%	4%	x	x	9%	6
COc1cc(NC(=O)Cn2cnc3c(SC)nc(N)nc32)cc(OC)c1OC	x	-22%	4%	x	x	x	-4
Cc1cccc2nc(CSc3nncn3-c3ccccc3)cn12	-7%	u	5%	-0.9	2	23%	-29
COc1ccc(NC(=O)C2CCN(c3nc(C)nc4c3CCC4)CC2)cc1	-9%	-3.0%	-6%	2.7	14	-10%[15.4 µM]	-13
Cc1cc(C)c2c(=O)n3c(nc2c1)C(Cc1ccccc1)NC(=O)c1cccnc1-3 (stereo not given)	x	-3.6%	x	x	x	u	-1
CSc1ncnc2c1ncn2CCCNCc1ccccn1	x	-1.4%	x	x	x	-25%	0
C=C(C)C1CC=C(C)/C(=N/NC(=O)COc2ccccc2Cl)C1 (stereo not given)	-30%	1.7%	8%	4.9	-10	0%	-7
CCOc1ccc(-c2c(C(=O)N/N=C/c3ccc(C)o3)nnn2-c2nonc2N)cc1	-4%	3.5%	-15%	-1.9	6	u	-1
Cc1ccc(N=Nc2c(O)[nH]c3ccc(F)cc23)cc1	u	-0.6%	u	-1.6	4	-7%[15.4 µM]	-12
CN1CCN(c2nc(-c3ccccc3)nc(-c3ccc(F)cc3)c2C#N)CC1	0%	x	-13%	-1.1	-4	6%	-5
O=Cc1cnc(N2CCN(Cc3ccccc3)CC2)s1	1%	x	-1%	3.3	-6	u	-2
Cn1c(=O)c(C(=O)NNC(=O)c2ccc(Br)cc2)c(O)c2ccccc21	10%	x	-7%	-0.6	10	4%[15.4 µM]	-7
